Assay outcomes as filed in PubChem.
Hedgehog cleavage = Drosophila hedgehog isoform A inhibitors, primary screen, biochemical, plate reader, single concentration (AID 588832); Biochemical plate reader assay, Hedgehog inhibition; active compounds read high; 8,000 tested, under 10 active; inhibition, % at 30.3 µM; in the data active = inhibition from about 57%;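 also: 0% = neutral control wells and 100% = positive control wells; cholesterol-driven self-cleavage of fly hedgehog protein by fluorescence polarization; read one hour after cholesterol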
Starred values were filed as active, the others as inactive. Some of the compounds tested; count on the stated rates, not on these rows.

Compound: Cc1ccccc1NC1c2ccccc2C(=O)N1Cc1ccco1 (configuration not stated)
- Hedgehog cleavage: 23.6

Compound: COc1cccc(Cn2nnc(C(=O)Nc3cc(Cl)ccc3OC)c2N)c1
- Hedgehog cleavage: 23.4

Compound: CCOC(=O)c1[nH]c(C)c(C(=O)NCCN2CCOCC2)c1C
- Hedgehog cleavage: 8.7

Compound: CC(C)=CCc1cc([C@@H]2CC(=O)c3ccc(O)c(CC=C(C)C)c3O2)ccc1O
- Hedgehog cleavage: 6.6

Compound: COc1ccc(-n2c(Cc3cccn3C)nnc2SCC(=O)Nc2ccc3c(c2)OCO3)cc1
- Hedgehog cleavage: 4.2

Compound: Cc1oc2cc3oc(=O)c(CCC(=O)NCCN4CCOCC4)c(C)c3cc2c1C
- Hedgehog cleavage: -1.6

Compound: CCOC(=O)C1=C(C)Nc2nc(C)nn2C1c1ccc(C)cc1 (configuration not stated)
- Hedgehog cleavage: 15.0

Compound: COC1=CC(=O)c2ccccc2C1=O
- Hedgehog cleavage: 1.8

Compound: CCOC(=O)c1[nH]c(C)c(C(=O)NC2CCCCC2)c1C
- Hedgehog cleavage: 10.7

Compound: Cc1ccc(C2c3[nH]c4ccccc4c3C[C@H]3C(=O)N(c4ccccc4C(=O)N4CCC(C(=O)O)CC4)C(=O)N23)cc1 (some centres not stated)
- Hedgehog cleavage: -3.5

7 entries from above in another layout:
Hedgehog cleavage	mol
-1.6	Cc1oc2cc3oc(=O)c(CCC(=O)NCCN4CCOCC4)c(C)c3cc2c1C
1.8	COC1=CC(=O)c2ccccc2C1=O
23.6	Cc1ccccc1NC1c2ccccc2C(=O)N1Cc1ccco1 (configuration not stated)
6.6	CC(C)=CCc1cc([C@@H]2CC(=O)c3ccc(O)c(CC=C(C)C)c3O2)ccc1O
-3.5	Cc1ccc(C2c3[nH]c4ccccc4c3C[C@H]3C(=O)N(c4ccccc4C(=O)N4CCC(C(=O)O)CC4)C(=O)N23)cc1 (some centres not stated)
15.0	CCOC(=O)C1=C(C)Nc2nc(C)nn2C1c1ccc(C)cc1 (configuration not stated)
23.4	COc1cccc(Cn2nnc(C(=O)Nc3cc(Cl)ccc3OC)c2N)c1

Carrying on:
Compound: NS(=O)(=O)c1ccc(CCNC(=O)C2CCCN(S(=O)(=O)c3cccnc3)C2)cc1 (configuration not stated)
- Hedgehog cleavage: 12.5

Compound: CC1=C(C/C=C(\C)CCC[C@H](C)CCC[C@H](C)CCCC(C)C)C(=O)c2ccccc2C1=O
- Hedgehog cleavage: 5.2

Compound: NC(=O)NC1NC(=O)NC1=O (configuration not stated)
- Hedgehog cleavage: -1.7

Compound: C[C@@H](C(=O)NC1CCN(Cc2ccccc2)CC1)N1C(=O)N2CCc3c([nH]c4ccccc34)[C@@]2(C)C1=O
- Hedgehog cleavage: 5.1

Compound: COC1=CC(=O)CC(C)C12Oc1cc(OC)cc(OC)c1C2=O (configuration not stated)
- Hedgehog cleavage: 5.4

Compound: Cc1c(C)c2ccc(OCC(=O)N[C@@H](Cc3ccccc3)C(=O)O)cc2oc1=O
- Hedgehog cleavage: 5.2

Compound: COc1ccc(-n2c(Cc3cccn3C)nnc2SCC(=O)Nc2ccc3c(c2)OCCO3)cc1
- Hedgehog cleavage: 8.3

Compound: COc1ccc(NS(=O)(=O)c2coc(C(N)=O)c2)cc1Cl
- Hedgehog cleavage: 8.3

Compound: Cc1ccc(-c2nc(CS(=O)(=O)CC(=O)NCCCN3CCN(C)CC3)c(C)o2)cc1
- Hedgehog cleavage: 6.4

Compound: O=C(CSc1nnc(-c2cccs2)o1)N1CCCCC1
- Hedgehog cleavage: 2.2

Look-ups from above:
Hedgehog cleavage, CC1=C(C/C=C(\C)CCC[C@H](C)CCC[C@H](C)CCCC(C)C)C(=O)c2ccccc2C1=O → 5.2
Hedgehog cleavage, O=C(CSc1nnc(-c2cccs2)o1)N1CCCCC1 → 2.2
Hedgehog cleavage, COc1ccc(-n2c(Cc3cccn3C)nnc2SCC(=O)Nc2ccc3c(c2)OCCO3)cc1 → 8.3
Hedgehog cleavage, COc1ccc(NS(=O)(=O)c2coc(C(N)=O)c2)cc1Cl → 8.3
Hedgehog cleavage, C[C@@H](C(=O)NC1CCN(Cc2ccccc2)CC1)N1C(=O)N2CCc3c([nH]c4ccccc34)[C@@]2(C)C1=O → 5.1
Hedgehog cleavage, Cc1ccc(-c2nc(CS(=O)(=O)CC(=O)NCCCN3CCN(C)CC3)c(C)o2)cc1 → 6.4

(next part)
Compound: O=C1C2CCCN2C(c2ccc(Br)cc2)N1c1ccc(F)cc1 (configuration not stated)
- Hedgehog cleavage: 0.0

Compound: COc1ccc(N2CCN(C(=O)c3ccc(CS(=O)(=O)c4ccccc4C)o3)CC2)cc1
- Hedgehog cleavage: 7.3

Compound: CCOC(=O)N1CCN(C(c2ccc(C)cc2)c2sc3nc(C)nn3c2O)CC1 (configuration not stated)
- Hedgehog cleavage: 6.2

Compound: COc1cc(/C=C/CO)cc(OC)c1OC/C=C(\C)CCC=C(C)C
- Hedgehog cleavage: 5.4

Compound: C[C@H](NC(=O)c1cc2cc(Cl)ccc2n1C)C(=O)N1CCC[C@H]1C(=O)O
- Hedgehog cleavage: 3.6

Compound: COCCCNc1nc2c(-c3cccc(C)c3)nnn2c2ccccc12
- Hedgehog cleavage: 9.5

Compound: COCCn1c(SCC(=O)NCc2ccco2)nnc1-c1c[nH]c2ccccc12
- Hedgehog cleavage: 6.8

Compound: Cc1ccccc1-c1nc(CS(=O)(=O)CC(=O)Nc2cc(F)ccc2F)c(C)o1
- Hedgehog cleavage: -1.9

Compound: CCc1cc(=O)oc2cc(OC(C)C(=O)N3CC[C@@]4(O)CCCC[C@H]4C3)ccc12 (some centres not stated)
- Hedgehog cleavage: 1.7

Compound: Cc1cc2ccccc2n1CCNC(=O)C1CCCCC1
- Hedgehog cleavage: 0.0

Compound: COc1cccc(NC(=O)CN2C(=O)c3cccnc3Oc3ccc(Cl)cc32)c1
- Hedgehog cleavage: 16.7

Compound: CCc1ccc(N2CC(C(=O)N/N=C/c3ccccc3)CC2=O)cc1 (configuration not stated)
- Hedgehog cleavage: 0.0

Compound: COc1ccc(C(=O)Nc2cc(-c3nn4c(C)nnc4s3)ccc2C)cc1
- Hedgehog cleavage: 2.0

Compound: O=C(CN1CCOc2ccccc21)N1CCCC1
- Hedgehog cleavage: 16.7

Compound: CSCCC(NS(=O)(=O)c1ccc2c(c1)oc(=O)n2C)C(=O)NC1CCC(C)CC1 (configuration not stated)
- Hedgehog cleavage: 0.0

Compound: COc1cc2c(cc1OC)C(C)N(C(=O)Cn1ncc3c1-c1ccccc1OC3)CC2 (configuration not stated)
- Hedgehog cleavage: 8.3

Compound: O=C1c2ccccc2C(Nc2ccc(-c3nc4ccccc4[nH]3)cc2)N1Cc1ccco1 (configuration not stated)
- Hedgehog cleavage: 33.2

Compound: CC1(C)CC(=O)c2sc(NC(=O)CCS(=O)(=O)c3ccccc3)nc2C1
- Hedgehog cleavage: 4.4

Compound: Cc1c(Cc2ccccc2)c(=O)oc2cc(OCC(=O)N[C@@H](Cc3ccccc3)C(=O)O)ccc12
- Hedgehog cleavage: 6.9

Compound: CC(C)=CCc1c(O)c(CC=C(C)C)c2c(c1O)C(=O)CC(c1ccc(O)cc1)O2 (configuration not stated)
- Hedgehog cleavage: 5.2

Compound: CCc1ccccc1N1CC23C=CC(O2)C(C(=O)OC)C3C1=O (configuration not stated)
- Hedgehog cleavage: 8.7

Compound: COCCNC(=O)CS(=O)Cc1nc(-c2ccccc2C)oc1C (configuration not stated)
- Hedgehog cleavage: 7.2

Compound: COc1ccc(N2C(=O)C3CCCN3C2c2ccc(C)o2)cc1 (configuration not stated)
- Hedgehog cleavage: 4.2

Compound: CCc1ccccc1NC(=O)C1CCCN(c2nn3c(=O)cc(C)nc3s2)C1 (configuration not stated)
- Hedgehog cleavage: 15.0

Compound: CC1=CCC2C(=O)N(c3ccc(C)c(Br)c3)C(=O)C2C1 (configuration not stated)
- Hedgehog cleavage: 6.5

Compound: COC(=O)C1(C)Nc2ccccc2C(=O)N1c1ccccc1OC (configuration not stated)
- Hedgehog cleavage: 20.0

Compound: CCN(C(=O)COc1cc(=O)n(CC)c2ccccc12)c1cc(Cl)ccc1OC
- Hedgehog cleavage: 12.9

Compound: Cc1c(N)cccc1[N+](=O)[O-]
- Hedgehog cleavage: 8.9

Compound: O=C(Nc1nccs1)C1CCCN(S(=O)(=O)c2cccnc2)C1 (configuration not stated)
- Hedgehog cleavage: 20.0

Compound: Cn1cc(S(=O)(=O)N2CCC(Cc3ccccc3)CC2)c(=O)n(C)c1=O
- Hedgehog cleavage: 9.5

Next section (2 carried over from the part before).
canonical_smiles,Hedgehog cleavage
O=C(Nc1nccs1)C1CCCN(S(=O)(=O)c2cccnc2)C1 (configuration not stated),20.0
Cn1cc(S(=O)(=O)N2CCC(Cc3ccccc3)CC2)c(=O)n(C)c1=O,9.5
COc1cccc(NC(=O)CN(C2=NC3CS(=O)(=O)CC3S2)c2cccc(C)c2)c1 (configuration not stated),10.0
COc1cc(NC(=O)c2cc(CC(C)C)on2)c(OC)cc1Cl,7.1
Cc1ccc(C)c(N2CCN(C(=O)CCC(=O)N3CCOc4ccc(Cl)cc43)CC2)c1,19.1
O=C(Nc1nc2c(F)cccc2s1)C1CC1,2.7
CCn1c(N2CCC(C)CC2)nc2c1c(=O)n(C)c(=O)n2C,8.3
Cc1c(Cc2ccccc2)c(=O)oc2cc(OCC(=O)NC(Cc3ccc(Cl)cc3)C(=O)O)ccc12 (configuration not stated),5.2
Cc1cccc(C2N(c3ccc(F)cc3)C(=O)C3CCCN32)c1 (configuration not stated),2.0
CC(O)CC(=O)OC[C@]12CC[C@H]3[C@@](C)(CC[C@H]4C(C)(C)CCC[C@]34C)[C@@H]1CC(C1=CC(=O)OC1O)O2 (some centres not stated),5.2
CCc1nnc(NC(=O)CC23CC4CC(CC(C4)C2)C3)s1,5.8
CCCCCC/C(C=O)=C\c1ccccc1,7.1
Cc1c(OC(C)C(=O)N2C[C@H]3C[C@@H](C2)c2cccc(=O)n2C3)ccc2c3c(c(=O)oc12)CCC3 (some centres not stated),0.0
CCOc1ccccc1N(CC)C(=O)Cn1ncc2c(=O)oc3ccccc3c21,1.9

Following part.
canonical_smiles,Hedgehog cleavage
O=C(NCCCn1ccnc1)C(=O)NCC1OCCN1S(=O)(=O)c1ccc(F)cc1 (configuration not stated),9.6
Cc1cccc2sc(NNC(=O)c3ccc(S(=O)(=O)N4CCCC(C)C4)cc3)nc12 (configuration not stated),8.2
COC(=O)c1cc(=O)n(Cc2ccc3c(c2)OCO3)c(=Nc2ccccc2)s1,7.7
COC(=O)COc1cccc2c(=O)n(CC(=O)NCCc3ccc(OC)c(OC)c3)ccc12,14.5
CCN(c1ccccc1)c1cc(C)nc2ncnn12,10.0
CCN(CCNS(=O)(=O)c1ccc2c(c1)oc(=O)n2C)c1ccccc1,5.4
CCOC(=O)N1CCN(C(=O)CS(=O)(=O)c2cn(Cc3ccc(F)cc3)c3ccccc23)CC1,14.5
Cc1ccc(C)c(N2CCN(C(=O)c3ccc4c(=O)n5c(nc4c3)CCCCC5)CC2)c1,-12.9
Cc1ccc(-c2csc(N3CCC(C(N)=O)(N4CCCCC4)CC3)n2)cc1,5.2
CCOc1ccc(NC(=O)CN2C(=O)COc3ccc(Cl)cc32)cc1,16.7
c1ccc(CSCc2ccccc2)cc1,6.9
O=C(NCCc1csc(-c2ccc(C(F)(F)F)cc2)n1)c1cccs1,10.5
COc1ccc(N(CC(=O)NC2CCCCC2C)S(=O)(=O)c2c(C)nn(C)c2C)cc1 (configuration not stated),-3.4
